# Screens from PubChem.
# Env fusion inh = HIV envelope-mediated fusion inhibition; HeLa-JRFL Env/CEM21 cell fusion, luciferase; inhibition, % at 12.3 µM; hit rate 1.1% among 360,000; AID 651610;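 active = mean replicate inhibition score of at least 50 and every replicate individually at or above 50; inconclusive = only one of the two criteria met; inactive = mean below 50 and not all replicates reaching 50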;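 note: 0% = plate neutral controls and 100% = maraviroc near 300 nM; one replicate is shown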
# UUG fidelity = yeast start codon fidelity modulation | S. cerevisiae UUG-firefly luciferase reporter, luminescence/redox ratio | activity score, % at 18.7 µM | hit rate 0.13% among 350,000 | AID 602363;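 active = replicate mean at a twofold rise or more, about +100% in these data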;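 note: firefly luciferase made from a UUG start codon reports start codon fidelity; reporter light over untreated wells divided by growth signal over untreated wells; some hits fall short of that in this replicate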
# * = called active by the depositor; ? = inconclusive; [ ] = dose if it differs, or a comment.
Molecule	Env fusion inh	UUG fidelity
C[C@@H]1CN([C@@H](C)CO)C(=O)c2cccc(NC(=O)c3nc4ccccc4s3)c2O[C@H]1CN(C)S(=O)(=O)c1ccc(Cl)cc1	-62[16.7 µM]	-14
C[C@@H]1CCCCO[C@H](CN(C)S(=O)(=O)c2ccc(Cl)cc2)[C@H](C)CN([C@H](C)CO)C(=O)c2cc(NC(=O)NC3CCCCC3)ccc2O1	36[16.7 µM]	-22
C[C@@H]1CN([C@H](C)CO)C(=O)CCCn2cc(nn2)CO[C@@H]1CN(C)CC1CCCC1	5[16.7 µM]	-6
CC(C)C#Cc1cnc2c(c1)C(=O)N([C@@H](C)CO)C[C@H](C)[C@H](CN(C)C(=O)c1cccc(F)c1)O2	23[16.7 µM]	12
C/C=C/c1ccc2c(c1)O[C@@H](CN(C)Cc1ccccc1F)[C@H](C)CN([C@H](C)CO)S2(=O)=O	28[16.7 µM]	0
C[C@@H]1CCCCO[C@H](CN(C)Cc2ccncc2)[C@H](C)CN([C@H](C)CO)C(=O)c2cc(NS(=O)(=O)c3cccs3)ccc2O1	11[16.7 µM]	0
CCCNC(=O)N(C)C[C@@H]1Oc2cc(C#Cc3cccc(F)c3)ccc2S(=O)(=O)N([C@@H](C)CO)C[C@@H]1C	-28[16.7 µM]	15
COc1ccc(S(=O)(=O)Nc2ccc3c(c2)C(=O)N([C@H](C)CO)C[C@@H](C)[C@@H](CN(C)C(=O)NC(C)C)O3)cc1	-15[16.7 µM]	12
COc1ccc(NC(=O)N[C@@H]2CC[C@H](CCn3cc(-c4ccc(F)cc4)nn3)O[C@@H]2CO)cc1	-6[16.7 µM]	-6
C[C@@H]1CCCCO[C@H](CN(C)C(=O)Nc2ccc(C(F)(F)F)cc2)[C@@H](C)CN([C@@H](C)CO)C(=O)c2cc(NC(=O)Nc3cccc4ccccc34)ccc2O1	-68[16.7 µM]	-13
C[C@H](CO)N1C[C@H](C)[C@@H](CN(C)Cc2ccccc2)Oc2ccc(NS(=O)(=O)c3cccs3)cc2C1=O	11[16.7 µM]	-8
C[C@@H]1CN([C@H](C)CO)C(=O)c2cc(C#CC3CC3)cnc2O[C@@H]1CN(C)S(C)(=O)=O	15[16.7 µM]	13

# (listing goes on)
Molecule	Env fusion inh	UUG fidelity
C[C@@H]1CN([C@@H](C)CO)S(=O)(=O)c2ccc(C#CC3CC3)cc2O[C@H]1CN(C)CC1CCOCC1	14[16.7 µM]	26
C[C@@H]1CCCCO[C@@H](CN(C)Cc2ccc3c(c2)OCO3)[C@@H](C)CN([C@H](C)CO)C(=O)c2cc(NC(=O)c3ccncc3)ccc2O1	-16[16.7 µM]	-1
C[C@@H]1CN([C@@H](C)CO)C(=O)c2cc(NS(=O)(=O)c3ccccc3)ccc2O[C@@H](C)CCCCO[C@H]1CN(C)C(=O)c1ccncc1	-3[16.7 µM]	13
C[C@@H]1CN([C@@H](C)CO)C(=O)c2cc(C#CCN(C)C)cnc2O[C@H]1CN(C)C(=O)NC1CCCC1	-10[16.7 µM]	-8
Cc1noc(C)c1NC(=O)N(C)C[C@@H]1Oc2ccc(NS(=O)(=O)c3c(C)noc3C)cc2CC(=O)N([C@H](C)CO)C[C@H]1C	-8[16.7 µM]	-6
C[C@H]1CCCCO[C@H](CN(C)C)[C@@H](C)CN([C@@H](C)CO)C(=O)c2cc(NS(=O)(=O)c3ccc(F)cc3)ccc2O1	6[16.7 µM]	6
Cc1ccc(S(=O)(=O)Nc2ccc3c(c2)CC(=O)N([C@H](C)CO)C[C@@H](C)[C@@H](CN(C)S(=O)(=O)c2ccc(F)cc2)O3)cc1	-14[16.7 µM]	25
CC(C)CC#Cc1cnc2c(c1)C(=O)N([C@H](C)CO)C[C@H](C)[C@@H](CN(C)C(=O)c1ccc3c(c1)OCO3)O2	-24[16.7 µM]	16
C[C@@H]1CCCCO[C@H](CN(C)C(=O)c2ccncc2)[C@@H](C)CN([C@H](C)CO)C(=O)c2cc(NS(=O)(=O)c3ccc(F)cc3)ccc2O1	-3[16.7 µM]	-6
O=C(CCN1CCCCC1)NCC[C@H]1CC[C@@H](NC(=O)C2CC2)[C@@H](CO)O1	9[16.7 µM]	-7
CNC[C@H]1OCCCC[C@H](C)Oc2ccc(NS(=O)(=O)c3c(C)noc3C)cc2C(=O)N([C@@H](C)CO)C[C@H]1C	6[16.7 µM]	-18
C[C@@H]1CCCCO[C@H](CN(C)C(=O)Nc2cccc3ccccc23)[C@@H](C)CN([C@H](C)CO)C(=O)c2cc(NC(=O)CCC(F)(F)F)ccc2O1	-7[16.7 µM]	2

# More entries
Molecule	Env fusion inh	UUG fidelity
C[C@@H]1CN([C@@H](C)CO)C(=O)Cc2cc(NS(C)(=O)=O)ccc2O[C@@H]1CN(C)CC1CC1	-7[16.7 µM]	-4
Cc1noc(C)c1NC(=O)N[C@@H]1CC[C@H](CCNC(=O)C2CC2)O[C@@H]1CO	2[16.7 µM]	-9
COc1ccccc1C(=O)Nc1ccc2c(c1)OC[C@H](C)N(C)C[C@H](C)[C@H](OC)CN(C)C2=O	-5[16.7 µM]	18
O=C(C[C@@H]1C[C@@H]2c3cc(NC(=O)C4CCOCC4)ccc3O[C@@H]2[C@@H](CO)O1)NCc1ccc(Cl)cc1	25[16.7 µM]	2
COc1ccc(NC(=O)C2Cc3c(-c4cccc(C(C)=O)c4)ccnc3O2)cc1OC (stereo unspecified)	41	-14
C[C@@H]1CCCCO[C@H](CN(C)C)[C@@H](C)CN([C@H](C)CO)C(=O)c2cc(NC(=O)c3ccncc3)ccc2O1	-4[16.7 µM]	-6
C[C@H](CO)N1C[C@H](C)[C@H](CN(C)S(=O)(=O)c2cccs2)Oc2ccc(NC(=O)Cn3cnnn3)cc2CC1=O	41[16.7 µM]	4
CCCNC(=O)N1C[C@H](O)COC[C@@H]2O[C@H](CC(=O)NCc3ccc(Cl)c(Cl)c3)CC[C@H]21	-5[16.7 µM]	-3
Cc1noc(C)c1NC(=O)Nc1ccc2c(c1)CC(=O)N([C@H](C)CO)C[C@@H](C)[C@H](CN(C)C(=O)Nc1ccc3c(c1)OCO3)O2	2[16.7 µM]	-2
C[C@H]1CN([C@@H](C)CO)C(=O)c2cccc(NC(=O)C3CC3)c2O[C@H]1CN(C)C(=O)Nc1ccc(F)cc1	-2[16.7 µM]	-2
N#C[C@@H]1[C@@H](c2ccc(C#Cc3ccccc3F)cc2)[C@H](CO)N1C(=O)C1CCC1	-16[16.7 µM]	2
C[C@@H]1CN([C@@H](C)CO)C(=O)c2cccc(NC(=O)C3CC3)c2O[C@@H]1CN(C)C(=O)Nc1ccccc1	-19[16.7 µM]	-6

# Remaining list, next part
Molecule	Env fusion inh	UUG fidelity
O=S(=O)(NCC[C@H]1CC[C@H](NS(=O)(=O)c2cccc(Cl)c2)[C@@H](CO)O1)c1cccc(F)c1	-8[16.7 µM]	6
O=C(C[C@H]1CC[C@@H](NC(=O)NC2CCCC2)[C@H](CO)O1)NCc1ccc(F)cc1	-3[16.7 µM]	-9
O=C(C[C@@H]1C[C@H]2c3cc(NS(=O)(=O)c4ccc(F)cc4)ccc3O[C@H]2[C@@H](CO)O1)NCc1ccccn1	-14[16.7 µM]	-28
CNC[C@H]1Oc2ccc(NC(=O)CCN3CCOCC3)cc2C(=O)N([C@@H](C)CO)C[C@H]1C	8[16.7 µM]	-9
C[C@@H]1CCCCO[C@@H](CN(C)Cc2ccc(Cl)c(Cl)c2)[C@@H](C)CN([C@H](C)CO)C(=O)c2cc(NC(=O)Nc3ccc(C(F)(F)F)cc3)ccc2O1	27[16.7 µM]	-14
C[C@@H]1CCCCO[C@@H](CN(C)C(=O)C2CCCCC2)[C@H](C)CN([C@@H](C)CO)C(=O)c2cc(NC(=O)Nc3ccc4c(c3)OCO4)ccc2O1	-24[16.7 µM]	-7
Cc1ccc(S(=O)(=O)Nc2ccc3c(c2)C(=O)N([C@H](C)CO)C[C@H](C)[C@@H](CN(C)C(=O)Nc2ccc(C(F)(F)F)cc2)OCCCC[C@H](C)O3)cc1	8[16.7 µM]	-8
C[C@@H]1CN([C@@H](C)CO)C(=O)c2cc(NS(=O)(=O)c3cn(C)cn3)ccc2O[C@@H](C)CCCCO[C@@H]1CN(C)C(=O)Nc1ccccc1	-15[16.7 µM]	2
C[C@@H]1CCCCO[C@@H](CN(C)C(=O)C2CCCCC2)[C@H](C)CN([C@H](C)CO)C(=O)c2cc(NC(=O)c3ccccc3)ccc2O1	-52[16.7 µM]	2
C[C@@H]1CN([C@H](C)CO)S(=O)(=O)c2ccc(/C=C/c3ccccc3)cc2O[C@@H]1CN(C)Cc1ccc(C(=O)O)cc1	12[16.7 µM]	7
C[C@H]1CN([C@@H](C)CO)C(=O)c2cc(C3=CCCCC3)cnc2O[C@@H]1CN(C)Cc1ccc(C(=O)O)cc1	-13[16.7 µM]	32
C[C@@H]1CN([C@H](C)CO)C(=O)c2cc(NS(C)(=O)=O)ccc2O[C@@H](C)CCCCO[C@H]1CN(C)Cc1ccncc1	-15[16.7 µM]	-12

# Next section, overlapping the part above by six compounds.
Molecule	Env fusion inh	UUG fidelity
Cc1ccc(S(=O)(=O)Nc2ccc3c(c2)C(=O)N([C@H](C)CO)C[C@H](C)[C@@H](CN(C)C(=O)Nc2ccc(C(F)(F)F)cc2)OCCCC[C@H](C)O3)cc1	8[16.7 µM]	-8
C[C@@H]1CN([C@@H](C)CO)C(=O)c2cc(NS(=O)(=O)c3cn(C)cn3)ccc2O[C@@H](C)CCCCO[C@@H]1CN(C)C(=O)Nc1ccccc1	-15[16.7 µM]	2
C[C@@H]1CCCCO[C@@H](CN(C)C(=O)C2CCCCC2)[C@H](C)CN([C@H](C)CO)C(=O)c2cc(NC(=O)c3ccccc3)ccc2O1	-52[16.7 µM]	2
C[C@@H]1CN([C@H](C)CO)S(=O)(=O)c2ccc(/C=C/c3ccccc3)cc2O[C@@H]1CN(C)Cc1ccc(C(=O)O)cc1	12[16.7 µM]	7
C[C@H]1CN([C@@H](C)CO)C(=O)c2cc(C3=CCCCC3)cnc2O[C@@H]1CN(C)Cc1ccc(C(=O)O)cc1	-13[16.7 µM]	32
C[C@@H]1CN([C@H](C)CO)C(=O)c2cc(NS(C)(=O)=O)ccc2O[C@@H](C)CCCCO[C@H]1CN(C)Cc1ccncc1	-15[16.7 µM]	-12
CN1C[C@H](O)COC[C@H]2O[C@@H](CC(=O)NC3CCC3)CC[C@@H]21	-1[16.7 µM]	-7
COc1ccc(NC(=O)N(C)C[C@H]2OCCCC[C@@H](C)Oc3ccc(NS(=O)(=O)c4ccc(F)cc4)cc3C(=O)N([C@H](C)CO)C[C@@H]2C)cc1	-26[16.7 µM]	5
COc1ccccc1C(=O)Nc1ccc2c(c1)C(=O)N(C)C[C@H](OC)[C@H](C)CN(CC1CC1)[C@H](C)CO2	-17[16.7 µM]	-3
CCNC(=O)C[C@@H]1CC[C@@H]2[C@H](COc3ccc(NC(=O)C4CCCCC4)cc3C(=O)N2C)O1	-9[16.7 µM]	44
COc1ccccc1NC(=O)N[C@H]1CC[C@@H](CCNS(=O)(=O)c2ccc(F)cc2)O[C@H]1CO	-3[16.7 µM]	1
CNC[C@H]1Oc2ccc(NC(=O)Nc3ccc(OC)cc3)cc2CC(=O)N([C@H](C)CO)C[C@H]1C	5[16.7 µM]	9
COc1ccc(-c2ccc([C@@H]3[C@H](C#N)N(C(=O)NC4CCCC4)[C@H]3CO)cc2)cc1	1[16.7 µM]	-8
C[C@@H]1CCCCO[C@H](CN(C)Cc2ccc(C(F)(F)F)cc2)[C@H](C)CN([C@@H](C)CO)C(=O)c2cc(NS(=O)(=O)c3ccc(Cl)cc3)ccc2O1	?	14
C[C@H]1CN([C@@H](C)CO)C(=O)c2cccc(NC(=O)Nc3ccc4c(c3)OCO4)c2O[C@H]1CN(C)CC1CCCCC1	-54[16.7 µM]	-2
COc1ccc(NC(=O)N(C)C[C@@H]2Oc3ccc(NC(=O)Cc4ccccc4)cc3C(=O)N([C@@H](C)CO)C[C@H]2C)cc1	-12[16.7 µM]	-6
CNC[C@H]1Oc2c(NC(=O)c3nc4ccccc4s3)cccc2C(=O)N([C@H](C)CO)C[C@H]1C	30[16.7 µM]	-6
C[C@@H]1CN([C@@H](C)CO)S(=O)(=O)c2ccc(Br)cc2O[C@H]1CN(C)S(=O)(=O)c1ccccc1	19[16.7 µM]	16

# Following part:
Molecule	Env fusion inh	UUG fidelity
C[C@@H]1CCCCO[C@@H](CN(C)C(=O)C2CCCCC2)[C@@H](C)CN([C@@H](C)CO)C(=O)c2cc(NS(=O)(=O)c3cccs3)ccc2O1	15[16.7 µM]	22
C[C@@H]1CN([C@H](C)CO)C(=O)c2cc(C#Cc3ccccc3F)cnc2O[C@@H]1CN(C)C(=O)Cc1ccncc1	-38[16.7 µM]	0
CNC[C@@H]1Oc2cc(C#Cc3ccc(OC)cc3)ccc2S(=O)(=O)N([C@@H](C)CO)C[C@H]1C	-52[16.7 µM]	1
C[C@@H]1CN([C@@H](C)CO)C(=O)c2cccc(NS(=O)(=O)c3ccc(Cl)cc3)c2O[C@H]1CN(C)C(=O)Nc1ccc2c(c1)OCO2	6[16.7 µM]	5
C[C@H]1CN([C@@H](C)CO)C(=O)c2cccc(NC(=O)c3cnccn3)c2O[C@H]1CN(C)S(=O)(=O)c1cn(C)cn1	-15[16.7 µM]	-10
Cc1ccc(S(=O)(=O)N(C)C[C@@H]2Oc3cc(C#CC4CCCC4)ccc3S(=O)(=O)N([C@@H](C)CO)C[C@H]2C)cc1	21[16.7 µM]	-19

# Not all compounds are listed. The share of hits here may be higher or lower than overall.
